Assay outcomes: PubChem BioAssay, National Center for Advancing Translational Sciences (NCATS)
Vaccinia Venus = inhibitors of vaccinia virus (Venus reporter). Vaccinia virus Venus reporter expression, fluorescence. Potency, µM (highest dose often 36.5 µM), inactives show top-dose activity change, negative = inhibition, actives largely listed as inhibitors. actives 0.46% (n = 330,000). AID 720580; active means well fitted inhibition curve with a large enough effect; inconclusive means small, poorly fitted or top-dose-only effect; inactive means no such curve, though single readings can be large or run the other way; tested in A549 cells; also: nearly all actives have a fitted effect of over 30% in size; inactives centre near -10
Vaccinia mCherry = inhibitors of vaccinia virus infection (mCherry reporter signal); Potency, µM (top dose mostly 36.5 µM), without a hit: top-dose activity change, negative = inhibition, most hits filed as inhibitors; Vaccinia virus mCherry reporter infection, fluorescence; about a quarter of the inactives have no number; actives 0.63% (n = 310,000); active = well fitted inhibition curve with a large enough effect; inconclusive = small, poorly fitted or top-dose-only effect; inactive = no such curve, though single readings can be large or run the other way; tested in A549 cells; also: nearly all actives have a fitted effect of over 35% in size; inactives centre near -10
* hit, by the source's call; i = inactive; ? = inconclusive; / = no result given; & = joins results of further samples; [ ] = dose if it differs, or a comment. % is scaled to controls: 0 for no effect and ±100 for the full control effect; potency is read from the fitted curve at half-maximal effect.

SMILES | Vaccinia Venus | Vaccinia mCherry
COc1ccc(S(=O)(=O)N2CCN(C)CC2)cc1NC(=O)c1ccccc1F | -6.0% | -5.5%
CCOc1ccc(-c2cc(C(=O)Nc3ccc(C)c(NS(C)(=O)=O)c3)[nH]n2)c(C)c1 | ? | 11.2µM*
CN1CCN(c2ccccc2N)CC1 | 0.9% | -14.2%
O=C(NCc1cccnc1)/C(=C\c1ccc(-c2ccc(Cl)c(Cl)c2)o1)S(=O)(=O)c1ccccc1 | 11.2µM* | ?
Nc1nc2ncccn2c1-c1ccc(F)c(F)c1 | -4.8% | i
O=c1c2ccccc2[nH]c(=S)n1Cc1cccs1 | -1.8% | i
Cc1ccc(S(=O)(=O)n2nccc2-c2c(-c3ccc(Cl)cc3)noc2C)cc1 | 1.3%[7.34 µM] | ?
COc1ccc(S(=O)(=O)N2CCCC2CNC(=O)C(=O)Nc2ccc(C)cc2)cc1 (stereo not given) | -13.6% | ?
O=C(Nc1ccccc1)c1ccccc1CSc1ccccc1 | -6.0% | -3.2%
CCc1ccc(C(=O)CN(C#N)c2nc(C)cc(C)n2)cc1 | ? | ?
COc1ccc(CCCCCCOCc2ccccc2)cc1 | -20.9% | i
Cc1ccc(NC(=O)CN2C(=O)c3ccccc3Sc3ccc(C(=O)N4CCOCC4)cc32)cc1C | -11.2% | -5.5%
CC(=O)c1c(OC(=O)c2ccco2)c2ccccc2n1C | -0.8% | i
COc1ccccc1C(CNC(=O)c1ccc(NS(=O)(=O)c2ccc(F)c(C)c2)cc1)N(C)C (stereo not given) | -24.5% | -23.3%
O=C(O)CNC(=O)CC12CC3CC(CC(C3)C1)C2 | ? | /
COc1ccc(CC(=O)Nc2ccc(S(=O)(=O)N3CCCCC3)cc2)cc1OC | -22.3% | -22.0%
Cc1nc(-c2ccccc2)sc1C1(C)CC(c2cccc(F)c2)=NO1 (stereo not given) | -3.6% | 8.8%
Cc1ccc(S(=O)(=O)NCC(=O)N2CCCCC2)cc1 | -12.7% | -17.7%
Cc1[nH]n(-c2ccccc2)c(=O)c1C(c1cccc([N+](=O)[O-])c1)c1c(C)[nH]n(-c2ccccc2)c1=O | -19.1% | -3.1%
COC(=O)CN1C(=O)C(C)(C)Oc2ccc(C(=O)Nc3ccccc3F)cc21 | 0.0% | i
CCCCn1nnnc1C(c1ccccc1)N1CCN(C)CC1 (stereo not given) | 1.9% | i
COc1ccccc1OC(C)C(=O)Nc1ccc(-c2nc3ccccc3s2)cc1 (stereo not given) | -7.8% | i
CCCOc1cccc(C2/C(=C(/O)c3ccc(OC)cc3)C(=O)C(=O)N2CCN(C)C)c1 (stereo not given) | -5.3% | -10.1%
COc1ccc2c(c1)OC[C@H]1[C@H]2N2C(=O)CN(CC3CCCO3)C(=O)[C@@]2(C)[C@H]1c1ccccc1 (stereo not given in full) | -13.4% | i
c1ccc(CN(CCN(Cc2ccccn2)Cc2ccccn2)Cc2ccccn2)nc1 | -14.0% | -1.4%
O=c1cc(COc2ccccc2Cl)nc2scc(-c3ccccc3)n12 | -15.4% | -12.2%
O=C(O)/C=C\c1cc2c(cc1[N+](=O)[O-])OCO2 | -10.1% | 9.7%
Cc1ccc(-c2csc(N3C(=N)SCC3=O)n2)cc1 | 0.2% | 19.0%
O=C(Cn1c(=O)n(-c2ccccc2)c(=O)c2c3c(sc21)CCC3)c1ccc(F)cc1 | -12.6% | -17.0%
COC(=O)C1=C(C)NC2=C(C(=O)CC(C)(C)C2)C1c1cnn(C)c1C (stereo not given) | -8.0% | -16.9%
C=CCC[C@@H](Cc1ccc(F)cc1)C(=O)OC[C@@H]1CCCN1C(=O)[C@@H](CC=C)CC(=O)N(CCO)Cc1ccccc1 | ? | -21.0%
O=c1c2oc3ccccc3c2n(Cc2cccc(Cl)c2)c(=O)n1Cc1ccco1 | -20.4% | -18.8%
COc1ccc(N=C2S/C(=C\c3cccs3)C(=O)N2CC(C)C)cc1 | -9.1% | -21.0%[1.46 µM]
CCOc1ccc(-c2nn(CC(=O)NC3CCCC3)c3c2cnc2ccc(C)cc23)cc1 | 8.1% | 1.0%
COc1ccc(S(=O)(=O)N(CC(=O)O)c2ccccc2)cc1 | -14.8% | -9.7%
O=C1c2ccccc2C(=O)N1c1cccc2ccccc12 | -4.2% | i
Cc1cccc(OCC(=O)N2CCN(Cc3ccc([N+](=O)[O-])cc3)CC2)c1 | 4.8% | -9.8%
Cc1ccc(CNC(=O)C2CC(c3ccc([N+](=O)[O-])cc3)=NO2)cc1 (stereo not given) | -3.8% | -13.6%
CCc1ccc(N2CC(C(=O)Nc3ccc(OC)c(S(=O)(=O)N4CCOCC4)c3)CC2=O)cc1 (stereo not given) | -7.5% | -3.3%
O=C(CCCCCNC(=O)N1CCn2c1nc1ccccc12)NCc1ccc(F)cc1 | -7.8% | -17.6%
COc1ccc(CNC(=O)COC(=O)CO/N=C(\C)c2ccc3c(c2)OCO3)cc1 | -10.9% | i
CCCN1CCN(c2ncnc3scc(C4COc5ccccc5O4)c23)CC1 (stereo not given) | -10.6% | -9.5%
O=c1[nH]cnc2c1N1CCC2CC1 | -13.2% | /
COc1ccc(CNC(=S)Nc2ccc(F)c(Cl)c2)cc1 | -12.5% | -8.0%
COc1ccc(S(=O)(=O)n2nc(-c3ccco3)nc2NCc2ccc(N(C)C)cc2)cc1 | -2.0% | -7.9%
CS(=O)(=O)c1cccc(C(=O)Nc2cccc(S(=O)(=O)N3CCCC3)c2)c1 | -11.0% | -9.8%
Cc1c(Cl)c([N+](=O)[O-])nn1CC(=O)Nc1ccc2c(c1)OCO2 | -27.9% | ?
CCCc1cnc(NCCNCC(O)COc2ccc(Cl)c(Cl)c2)nc1 (stereo not given) | -15.9% | ?
CCCCn1ccc(O)c(Cc2ccc(F)cc2)c1=O | -16.7% | /
O=C(NC(=S)Nc1cccc(Cl)c1)c1cncc(Br)c1 | -7.4%[7.34 µM] | ?

Entries listed so far that contain a COOH group:
SMILES | Vaccinia Venus | Vaccinia mCherry
O=C(O)CNC(=O)CC12CC3CC(CC(C3)C1)C2 | ? | /
O=C(O)/C=C\c1cc2c(cc1[N+](=O)[O-])OCO2 | -10.1% | 9.7%
COc1ccc(S(=O)(=O)N(CC(=O)O)c2ccccc2)cc1 | -14.8% | -9.7%

Further structures follow.
SMILES | Vaccinia Venus | Vaccinia mCherry
O=C(CSc1nc2cc(Cl)ccc2s1)NCc1ccc2c(c1)OCO2 | -12.1% | -12.4%
CC(C)(C)c1ccc(N=C2SCC(=O)N2Cc2cccs2)cc1 | ? | -24.5%
C=C(c1ccccc1C)[n+]1ccccc1 | -28.6% | -11.8%
CCn1nc(C)c(/C=N/NC(=O)Cn2nnnc2N)c1C | -14.1% | -4.8%
COc1ccc(C(=O)NC(C(=O)N2CCc3ccccc32)C(C)C)cc1 (stereo not given) | -5.5% | i
NC(=O)CSc1nc2scc(-c3ccc(Cl)cc3)c2c(=O)n1Cc1ccccc1 | -20.9% | -6.5%
O=C(Nc1ccc(Cl)cc1)c1cc2nc(-c3ccco3)cc(C(F)(F)F)n2n1 | -5.3% | -18.8%
COc1ccc(-c2nc3cc(C)c(Br)c(C)n3c2Cc2ccccc2C(F)(F)F)cc1OC | -3.3% | 12.6%
N#CCC(C(=O)c1cccnc1)c1ccccc1 (stereo not given) | -11.5% | i
COc1ccc(N(CC(=O)O)S(C)(=O)=O)cc1OC | -3.7% | -6.1%
O=[N+]([O-])c1ccc(Sc2nccn2Cc2ccccc2)c([N+](=O)[O-])c1 | -18.6% | -3.4%
CCn1c(SCC(=O)Nc2ccccc2Cl)nnc1C1CC1 | -11.8% | -11.9%
Clc1cccc(-n2ncc3c(NC4CCCCC4)ncnc32)c1 | -19.5% | -27.7%
CC(C)(C)NC(=O)C(c1ccncc1)n1c(=O)c(-c2ccco2)nc2ccccc21 (stereo not given) | -7.6% | -6.2%
COC(=O)[C@@]12C[C@@H](CC(=O)NCc3ccc(C)o3)C(=O)N(Cc3ccccc3)C1=CCC(C)(C)C2 | ? | ?
Cc1ccc(CNC(=O)Cn2ncn3cccc3c2=O)cc1 | -17.7% | i
CCCCC(CCC(=O)O)(C(=O)OCC)c1csc(Nc2ccc(C)cc2)n1 (stereo not given) | -6.2% | -10.6%
Cn1cnnc1SCc1ccc(C(=O)N/N=C(\CCC(=O)O)c2ccc(C(C)(C)C)cc2)cc1 | -2.9% | -21.1%
O=C(Nc1nccs1)C1CC=CCC1 (stereo not given) | -6.3% | -11.2%
Cc1ccc(SCc2cn3ccccc3n2)cc1 | 3.1% | i
O=C(Nc1cccc(Cl)c1)NC1CCS(=O)(=O)C1 (stereo not given) | 5.3% | -3.9%
C=CCN1C(=O)C2(OCCCO2)c2cc(C)ccc21 | -5.1% | -8.3%
CC(Sc1nc(N)cc(=O)[nH]1)C(=O)Nc1ccc(N2CCOCC2)cc1 (stereo not given) | -9.3% | -4.9%
CCCc1nnc(NC(=O)C2CC(=O)N(CCc3ccc(F)cc3)C2)s1 (stereo not given) | -16.2% | -21.8%
CCc1nnc2sc(-c3ccc(NC(=O)c4ccc5c(c4)OCCO5)cc3)nn12 | -22.4% | /
O=C(Nc1nc2ccccc2s1)c1c(F)cccc1Cl | -14.7% | -18.3%
CCCCc1ccc(NS(=O)(=O)c2c(C)n(C)c(=O)n(C)c2=O)cc1 | -13.6% | i
Cc1ccccc1Nc1nc(N)nc(CSc2nc3ccccc3s2)n1 | -15.6% | -22.0%
COc1ccc(-c2cn(-c3ccc(C)cc3)c(S(=O)(=O)CC(=O)Nc3ccccc3)n2)cc1 | -22.7% | -24.4%
COc1ccc(CCNC(=O)COc2ccc(C)nc2[N+](=O)[O-])cc1OC | -17.9% | i
O=c1c2ccccc2oc2ccc(-c3ccoc3)cc12 | -5.8% | -4.3%
Cc1nn(C)c(C)c1NC(=O)c1ccnn1C | -6.6% | /
Cc1ccccc1Nc1c(-c2ccccc2)nc2cccc(C)n12 | -10.8%&-9.9% | -14.3%&-8.0%
Cc1ccc(-c2nc3ccccc3[nH]2)cc1NC(=O)COc1cccc(C)c1C | -13.5% | 2.8%
CN(C)C(=O)Cn1cc(S(=O)(=O)Cc2ccccc2)c2ccccc21 | -3.0% | i
O=C(N/N=C/c1ccco1)c1ccc(N2CCCC2=O)cc1 | -11.0% | i
CC(C)(C)NS(=O)(=O)c1ccc(CCC(=O)NCc2cccnc2)cc1 | -9.1% | i
CC(C)(C)S(=O)N1Cc2cc(C(=O)NCc3ccc4c(c3)OCO4)nc(-c3cccc(-c4ccccc4)c3)c2[C@@H]1CCO (stereo not given in full) | -12.1% | 2.5%
Cc1noc(C)c1NC(=O)NCCN1CCN(Cc2ccccc2)CC1 | -1.0% | i
CC1=Nc2cc(C(=O)NC3CCCC3)ccc2Sc2ccc(C)cc21 | ? | -7.4%
COc1ccccc1C(=O)NC(=O)Nc1ccc(-c2cc(C(F)(F)F)nn2-c2ccccc2)cc1 | -20.7% | -19.1%
O=C1OCCN1C(=O)[C@H]1[C@H](c2ccccc2)C(c2ccccc2)=NN1c1ccccc1 | -23.9% | -16.9%
O=C(Nc1ccc(OCC(F)(F)C(F)F)c(C(F)(F)F)c1)c1ccc(Cl)cc1 | ? | ?
O=C(NCCOCCOCCNC(=O)c1cccnc1)c1cccnc1 | -9.9% | -14.9%
CSc1cccc(-c2nnc(NC(=O)c3ccc4c(c3)OCCO4)o2)c1 | -10.2%[7.34 µM] | -11.0%[7.34 µM]
C=CCn1c(SCC(=O)c2c(N)n(C)c(=O)n(C)c2=O)nnc1-c1ccncc1 | -6.8% | -8.5%
Cc1cc(S(=O)(=O)NCc2ccc(N3CCN(C)CC3)cc2)c(C)s1 | -21.2%[7.34 µM] | -21.7%[7.34 µM]
CN(C)CCNS(=O)(=O)c1ccc(N2CCc3ccccc32)c([N+](=O)[O-])c1 | -10.4% | ?
COc1ccc(-c2cnc(NCc3ccc(C)cc3)n2C)cc1 | -11.6% | -6.7%
O=C(CN1CCN(S(=O)(=O)c2ccc(Br)cc2)CC1)N/N=C/c1ccncc1 | -6.6% | 5.1%
The listing continues.
SMILES | Vaccinia Venus | Vaccinia mCherry
CC(Sc1nnc(-c2cccs2)n1-c1ccccc1)C(=O)NCc1ccco1 (stereo not given) | -15.0% | /
CC1=C(C(=O)Nc2ccccc2)C(c2cccs2)C(C#N)=C(SCC#N)N1 (stereo not given) | 4.2% | -6.3%
c1cc(Nc2ncnc3sc4c(c23)CCC4)ccn1 | -2.8% | -11.7%
COc1ccc(NC(=S)N2CCN(S(C)(=O)=O)CC2)cc1 | -3.4% | i
CSc1ccccc1NC(=O)C1(C)CCN1C(=O)Cc1ccc(-c2ccccc2)cc1 (stereo not given) | -15.9% | 20.5%
COc1cccc(NC(=O)Cn2c(=O)n(CC(=O)NCc3ccc(C)cc3)c(=O)c3sccc32)c1 | ? | ?
COc1ccc2c(c1)C(=O)N(c1ccc(C)cc1)C(=O)C2 | -13.7% | /

Grouped by structure: the compounds so far with a cyano group.
SMILES | Vaccinia Venus | Vaccinia mCherry
CCc1ccc(C(=O)CN(C#N)c2nc(C)cc(C)n2)cc1 | ? | ?
N#CCC(C(=O)c1cccnc1)c1ccccc1 (stereo not given) | -11.5% | i
CC1=C(C(=O)Nc2ccccc2)C(c2cccs2)C(C#N)=C(SCC#N)N1 (stereo not given) | 4.2% | -6.3%
